Compound activity as filed in PubChem.
E coli growth: E. coli growth inhibition. Escherichia coli growth, OD600, 23 h; stronger effect = lower value. OD600 absorbance (no concentration beside the values). actives 0.21% (n = 330,000);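 active means OD600 absorbance below the run mean of sample wells minus 3.6 SD, in any replicate, cut at about 0.56 in these data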;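 further: stock transfer was 300 nL into about 60 µL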
A1 inh: inhibitors of the anti-apoptotic protein A1, read as caspase activation; MEF A1-2A-BIM cells, Caspase-Glo 3/7 luminescence, 3 h; percent of clofoctol response, vehicle zero; caspase activation, % (no concentration beside the values); actives 0.066% (n = 330,000); AID 2462;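 active means over half of replicate activation scores above 10%, or exactly half above 10 with the replicate mean above 10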;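 further: wells of about 30 µL received 50 nL stock; many hits fall short of the cut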
MLL AF4-AF9 inh: MLL-AF4/AF9 protein interaction inhibition | AlphaScreen, biotin-AF4 peptide binding to FLAG-AF9 | inhibition, % at 10 µM | actives 0.47% (n = 350,000) | AID 651704;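 active means every replicate reaching a set inhibition limit, whatever the replicate mean, cut at about 25% in these data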;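 further: 0% = plate neutral control median and 100% = total signal loss; the record names both 10 and 1 µM as test concentration; the first replicate is given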
Target sequence (P42568 whole entry, looked up): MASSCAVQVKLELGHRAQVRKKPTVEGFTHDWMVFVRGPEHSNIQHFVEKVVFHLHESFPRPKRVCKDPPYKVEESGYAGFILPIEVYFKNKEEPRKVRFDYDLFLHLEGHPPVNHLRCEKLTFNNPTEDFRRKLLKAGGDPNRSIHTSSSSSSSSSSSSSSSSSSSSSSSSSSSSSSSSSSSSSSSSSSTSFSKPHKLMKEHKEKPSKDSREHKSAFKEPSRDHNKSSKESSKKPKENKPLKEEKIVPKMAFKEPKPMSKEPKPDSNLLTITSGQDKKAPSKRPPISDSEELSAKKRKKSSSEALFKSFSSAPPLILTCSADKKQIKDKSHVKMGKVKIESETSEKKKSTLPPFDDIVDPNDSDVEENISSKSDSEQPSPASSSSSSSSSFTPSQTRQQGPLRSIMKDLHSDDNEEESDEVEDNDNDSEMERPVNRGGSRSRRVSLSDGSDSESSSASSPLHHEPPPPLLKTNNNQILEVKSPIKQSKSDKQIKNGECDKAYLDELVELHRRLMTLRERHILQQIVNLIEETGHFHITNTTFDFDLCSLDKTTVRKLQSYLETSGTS
T cruzi inh: T. cruzi replication inhibition; inhibition, % (test concentration not listed); actives 1.4% (n = 300,000); T. cruzi beta-gal in NIH3T3, luminescence, 90 h;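 active means mean inhibition across valid replicates above about 55%, limit read from the data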;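 further: signal also drops with host cell toxicity which is not excluded here; 0% = plate median of DMSO wells and 100% = zero luminescence signal; higher percent means less beta-gal luminescence so fewer parasites; stock transfer was 50 nL into about 50 µL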
Beta cell apopt: blocks beta cell apoptosis; actives 0.8% (n = 300,000); protection from apoptosis, % (test concentration not listed); INS-1E cytokine-induced death, ATP luminescence, 48 h; percent of positive-control rescue, neutral wells zero;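 active means all replicates at 75% or more, or half of them and the mean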;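 further: 0% = cytokine-treated negative control wells and 100% = positive control rescue; higher means more ATP so stronger rescue from cytokine killing; wells of about 40 µL received 100 nL stock; the first replicate is given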
UCH37 DUB inh: blocks the human deubiquitinase UCH37. inhibition, % (concentration not given with the values). purified proteasome/UCH37, Ub-AMC cleavage fluorescence. actives 0.33% (n = 330,000);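 active means mean of two replicates above 20%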;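 further: 0% = compound-free wells with enzyme and 100% = wells lacking proteasome; stock transfer was 100 nL into about 20 µL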
Target sequence (Q9Y5K5 whole entry, looked up): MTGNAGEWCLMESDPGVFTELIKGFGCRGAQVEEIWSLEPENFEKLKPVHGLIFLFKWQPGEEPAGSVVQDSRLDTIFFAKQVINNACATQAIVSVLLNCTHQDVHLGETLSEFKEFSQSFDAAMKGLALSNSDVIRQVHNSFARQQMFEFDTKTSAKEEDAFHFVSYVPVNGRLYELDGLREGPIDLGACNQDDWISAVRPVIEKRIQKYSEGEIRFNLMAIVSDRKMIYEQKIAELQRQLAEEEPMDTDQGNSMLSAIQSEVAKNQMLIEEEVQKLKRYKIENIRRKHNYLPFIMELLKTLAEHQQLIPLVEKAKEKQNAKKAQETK
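system = Proteasome-associated human UCH37 deubiquitinase | amount = 0.15 nM proteasome as dispensed | medium = pH 7.4 Tris-HCl (50 mM) with ovalbumin, ATP-MgCl2, DTT | incubation = 30 min preincubation with enzyme, 25 min cleavage at room temperature | detection = AMC fluorescence 355/460 nm | read-out basis = percent inhibition | controls = no-proteasome and no-compound wells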
FGF22 binding: FGF22 (human) thermal shift binding. Q9HCT0. recombinant FGF22 thermal shift, SYPRO orange fluorescence; percent of sucrose octasulfate shift, DMSO zero. calls only at 9.99 µM. actives 1.5% (n = 340,000);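 active means melting point raised past a set limit in the mean and every replicate; three in four hits are not shown here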
Target sequence (Q9HCT0 whole entry, looked up): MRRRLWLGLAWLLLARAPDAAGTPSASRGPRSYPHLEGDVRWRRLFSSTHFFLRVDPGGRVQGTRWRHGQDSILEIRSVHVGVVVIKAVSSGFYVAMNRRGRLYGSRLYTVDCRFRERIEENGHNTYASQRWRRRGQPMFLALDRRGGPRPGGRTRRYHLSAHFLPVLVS
Ecoli rRNA inh: inhibitors of bacterial rRNA selective over humanized ribosomes; E. coli WT GFP vs humanized-ribosome RFP mutants, fluorescence, 24 h; stronger effect = lower value; DMSO median 0, no signal -100; GFP signal change (wild-type ribosome), % (no concentration beside the values); actives 1.6% (n = 350,000);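 active means significant combined selectivity score with lowered wild-type GFP, culture density cut under 30%, mutant RFP and density less affected; inactive means any of these conditions unmet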; further: one replicate is shown; some compounds called inactive have numbers as strong as hits
Ecoli rRNA inh OD600: also measured in Ecoli rRNA inh; calls as there; OD600 change, %; measured here: OD600 growth;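 optical density of the mix in the first replicate; 0 = DMSO median and -100 = no signal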
Ecoli rRNA inh RFP: second read-out of Ecoli rRNA inh, no call of its own (marks repeat the call); RFP signal change, %; measured here: RFP humanized mutant strains;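 first replicate; 0 = DMSO median and -100 = no signal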
* hit, by the source's call; i = inactive; . = not tested or not shown. This is a subset, so the mix of outcomes need not match the whole.

SMILES	E coli growth	A1 inh	MLL AF4-AF9 inh	T cruzi inh	Beta cell apopt	UCH37 DUB inh	FGF22 binding	Ecoli rRNA inh	Ecoli rRNA inh OD600	Ecoli rRNA inh RFP
COc1ccc(C2Nc3ccccc3C(=O)N2c2ccc(F)cc2)cc1CSc1ccccn1 (centres undefined)	0.73	-1.9	-0.1	-9	-2	-96	i	-2	9	6.1
CN1CCN(CCCNC(=O)c2ccc(/C=C3\Oc4ccccc4N(Cc4ccc(Cl)cc4)C3=O)cc2)CC1	0.64	-0.7	0.0	30	17	i	i	-59	-77	-19
COc1ccc(N(Cc2cc3ccc(C)cc3[nH]c2=O)C(=O)C2CCCO2)cc1 (centres undefined)	0.66	-0.6	7.6	8	-6	5.0	i	-9	-6	-0.3
CCCS(=O)(=O)c1c(S(=O)(=O)CCC)c2cnccn2c1C(=O)c1ccc(Cl)cc1	0.74	1.3	.	5	1	3.7	.	.	.	.
O=S(=O)(c1ccc(F)c(F)c1F)N1CCN(C(=S)NC2CC3CCC2C3)CC1 (centres undefined)	0.67	-0.5	-0.8	18	6	3.1	i	9	7	-0.8
CC(=O)Nc1ccc(-n2c(C)c(C(C)=O)c(C(C)=O)c2C)cc1	0.77	-0.5	.	-6	-6	3.8	.	.	.	.
O=C(CP(=O)(c1ccccc1)c1ccccc1)N1CCCCC1	0.68	-0.4	.	5	-3	2.0	.	.	.	.
NS(=O)(=O)c1ccc(N=Nc2ccc(=O)[nH]c2O)cc1	0.63	1.2	-1.1	-5	4	32*	i	40	4	8.3
Cc1ccc(OCCC(=O)OCC(=O)Nc2ccc(N3CCOCC3)cc2)cc1	0.72	-0.5	-7.8	-6	.	5.1	i	5	9	-1.6
CCOc1ccccc1C(=O)NC(C(=O)NCc1ccccc1OC)C(C)C (centres undefined)	0.7	2.8	-2.0	2	-4	0.7	i	-8	-5	0.3
COc1ccccc1OC1=NS(=O)(=O)c2ccccc21	0.76	-0.9	.	-9	5	1.5	.	.	.	.
COc1ccc(NC(=O)CCc2nnc3ccc(NCc4ccco4)nn23)cc1	0.67	0.0	-0.7	1	.	4.9	i	0	2	-0.4
Clc1ccc(-c2nc3ccccc3nc2-c2ccccc2)cc1	0.73	-0.4	-1.0	12	2	-1.9	i	-5	-11	-5.1
CCCCCCCCN1N=N[C@H]2[C@H]1[C@@H]1C[C@H]2N(C(=O)OC(C)(C)C)O1	0.71	.	-0.8	.	.	1.7	i	-32*	-21*	0.9*
Cc1cc(N2CCOCC2)nc2ccc(NC(=S)NCc3ccc4c(c3)OCO4)cc12	0.67	-0.1	3.4	39	5	-18	i	-10	-19	-2.7
O=C(/C=C/c1ccccc1)N/C(=C/c1ccccc1)C(=O)NCCO	0.72	0.7	.	-10	-7	2.0	.	.	.	.
CCN(CC(=O)NC1CCS(=O)(=O)C1)S(=O)(=O)c1ccc(F)cc1 (centres undefined)	0.66	0.1	.	12	2	0.2	.	.	.	.
O=C(Oc1cccc(Oc2ccccc2)c1)N1CCOCC1	0.72	-0.6	.	25	-4	4.2	.	.	.	.
O=C(NC(=S)Nc1cc(C(F)(F)F)ccc1Cl)c1ccccc1	0.69	-0.2	.	5	3	0.4	.	.	.	.
COc1ccc(CNC(=O)Cn2cnc3c(=O)n(C)c(=O)n(C)c32)cc1	0.67	1.3	.	-3	-1	3.0	.	.	.	.
Cc1ccc(CN2C(=O)C(C)Nc3ncnc(N4CCN(c5ccccn5)CC4)c32)cc1 (centres undefined)	0.69	-0.8	5.9	15	-6	1.5	i	-5	-1	5.8
CCCCCC(=O)NNC1=NCC(Cc2cccc(Cl)c2)S1 (centres undefined)	0.71	0.0	-2.3	-9	.	4.9	i	1	-6	1.9
COc1cc(NC(=O)COC(=O)CO/N=C(\C)c2ccc3c(c2)OCO3)cc(OC)c1	.	-0.9	-1.5	.	-2	.	i	-4	1	3.8
C=CCC[C@H](Cc1ccc(F)cc1)C(=O)OC[C@H]1CCCN1C(=O)[C@@H](CC=C)CC(=O)NCCO	0.71	.	2.3	.	.	1.6	i	-20	-18	-2.5
CCCOc1ccc(N2C(=O)CC(N(CCc3ccccc3)C(=O)c3ccccc3)C2=O)cc1 (centres undefined)	0.7	0.2	-3.1	-15	-1	0.4	i	8	6	-0.2

4 entries from above, ordered by the value under MLL AF4-AF9 inh, smallest number first.
SMILES	MLL AF4-AF9 inh	UCH37 DUB inh	FGF22 binding	Ecoli rRNA inh	Ecoli rRNA inh OD600	Ecoli rRNA inh RFP
Cc1ccc(OCCC(=O)OCC(=O)Nc2ccc(N3CCOCC3)cc2)cc1	-7.8	5.1	i	5	9	-1.6
CCCCCC(=O)NNC1=NCC(Cc2cccc(Cl)c2)S1 (centres undefined)	-2.3	4.9	i	1	-6	1.9
O=S(=O)(c1ccc(F)c(F)c1F)N1CCN(C(=S)NC2CC3CCC2C3)CC1 (centres undefined)	-0.8	3.1	i	9	7	-0.8
Cc1cc(N2CCOCC2)nc2ccc(NC(=S)NCc3ccc4c(c3)OCO4)cc12	3.4	-18	i	-10	-19	-2.7

(continued)
SMILES	E coli growth	A1 inh	MLL AF4-AF9 inh	T cruzi inh	Beta cell apopt	UCH37 DUB inh	FGF22 binding	Ecoli rRNA inh	Ecoli rRNA inh OD600	Ecoli rRNA inh RFP
Cc1ccccc1C(=O)N(Cc1nc2ccccc2c(=O)[nH]1)C1CCCC1	.	0.4	-0.6	15	2	.	i	-10	-16	-3.3
O=C(CN1CCOC1=O)N1CCCC(Nc2ccc(F)c(F)c2)C1 (centres undefined)	0.69	-0.2	-0.2	-1	-5	4.1	i	6	9	5.1
CC(C)c1ccc(OCC(=O)NCCO)cc1	0.72	0.3	.	-3	1	3.0	.	.	.	.
CC(C)(O)CC[C@@H](O)[C@](C)(O)[C@H]1CC[C@@]2(O)C3=CC(=O)[C@@H]4C[C@@H](O)[C@@H](O)C[C@]4(C)C3CC[C@]12C (some centres undefined)	0.77	1.3	-1.6	-6	-5	0.9	i	10	-5	2.6
COc1ccccc1N1CCN(Cc2nc3ccccc3c(=O)n2CC(C)=O)CC1	0.76	-1.1	.	7	7	2.3	.	.	.	.
COc1ccc(-n2cnnc2SCC(=O)c2ccc(S(=O)(=O)N3CCOCC3)cc2)cc1	0.71	0.1	.	-3	-3	-1.0	.	.	.	.
O=C(O)Cc1sc(-c2ccccc2)nc1-c1ccccc1	0.75	-0.2	.	-13	-2	3.9	.	.	.	.
COc1cc(CNc2ncn[nH]2)ccc1OCc1cccc(C)c1	0.65	-2.1	4.9	2	-9	3.0	i	-1	4	0.2
CC12CCC(=O)N1C(C(=O)Nc1ccc(Br)cc1Cl)CS2 (centres undefined)	0.73	-0.2	-1.7	-1	.	4.1	i	-6	-9	3.2
O=C1C=C(N2CCN(C3=CC(=O)CCC3)CC2)CCC1	0.71	0.2	.	-11	-3	2.2	.	.	.	.
CC(NC(=O)CCC(=O)N1CCCCCC1)c1ccccc1 (centres undefined)	0.68	1.4	-0.6	-11	-1	4.6	i	3	9	0.9
COc1ccc(CCN2C(=O)CC(Cc3ccc(Br)cc3)C2=O)cc1OC (centres undefined)	0.69	-0.1	.	5	1	4.1	.	.	.	.
O=C(NCc1ccccc1Cl)C1CCN(S(=O)(=O)N2CCCCC2)CC1	0.7	1.7	.	12	-3	1.9	.	.	.	.
CC(=O)NC(c1ccccc1)c1cccnc1 (centres undefined)	0.65	0.2	.	10	-8	5.4	.	.	.	.
CC1(c2ccc(OC(F)F)cc2)NC(=O)N(CC(=O)Nc2ccc(F)cc2)C1=O (centres undefined)	0.68	-0.5	1.6	-1	-7	-1.5	i	-6	-3	2.4
Cc1ccc(NC(=O)CSc2nc3ccccc3c(=O)n2CC2CCCO2)cc1 (centres undefined)	0.7	0.1	-0.3	14	2	3.1	i	17	23	2.5
CCOC(=O)Nc1ccc2c(c1)N(C(=O)CN1CCN3CCCC3C1)c1ccccc1CC2 (centres undefined)	0.73	1.8	.	-22	-7	2.5	.	.	.	.
COc1ccc([N+](=O)[O-])cc1-n1cnnn1	0.72	-0.4	1.1	-7	-4	3.3	i	7	8	1.1
CC(NC(=O)COc1ncnc2cc([N+](=O)[O-])ccc12)c1ccccc1 (centres undefined)	0.7	-0.1	.	-11	4	6.1	.	.	.	.
CCC(=O)N1N=C(c2ccccc2)CC1c1ccccc1 (centres undefined)	0.66	-1.6	2.7	9	-5	2.2	i	-10	-9	0.4
Cc1onc(-c2ccccc2)c1C(=O)N1CCN(c2ccccc2F)CC1	0.66	-1.2	-2.5	-14	.	3.8	i	-3	-7	1.9
COc1ccccc1OCCNc1cc(N2CCOCC2)ccc1[N+](=O)[O-]	0.68	-1.1	-9.9	8	-9	7.7	i	-27*	-18*	-0.9*
N=c1oc2ccccc2cc1-c1nc(-c2ccccc2)cs1	0.72	-0.3	-3.1	16	-4	-24	i	11	12	16
CCn1c2ccccc2c2cc(NC(=O)COc3ccccc3)ccc21	0.72	1.0	3.4	22	-10	2.9	i	-10	13	5.4
COc1cccc(C(CC(=O)NCc2ccco2)NS(=O)(=O)c2ccc(C)cc2)c1OC (centres undefined)	0.75	-0.6	.	8	3	-1.2	.	.	.	.
SMILES	E coli growth	A1 inh	MLL AF4-AF9 inh	T cruzi inh	Beta cell apopt	UCH37 DUB inh	FGF22 binding	Ecoli rRNA inh	Ecoli rRNA inh OD600	Ecoli rRNA inh RFP
c1ccc(Nc2ccccn2)cc1	0.71	-0.6	.	5	-5	2.1	.	.	.	.
CCCCNC(=O)Nc1cc(C(F)(F)F)c[nH]c1=O	0.75	0.1	.	0	-4	1.1	.	.	.	.
O=C(Nc1ccccc1)c1ccccc1NC(=O)c1ccccc1[N+](=O)[O-]	0.66	-0.3	3.5	-2	-1	4.7	i	-20	-16	0.2
CCCOc1ccc(C(=O)CCC(=O)NNC(=O)Cn2nc(C)cc2C)cc1	0.67	-0.5	0.0	3	6	-1.5	i	5	5	-0.5
C(/CCc1ccccc1)=N\Nc1nc2ccccc2[nH]1	.	-1.3	24	2	88*	.	i	6	7	3.9
O=C(CN1C(=O)NC2(CCCCC2)C1=O)Nc1cccc(Cl)c1Cl	0.69	-0.5	-5.0	.	-3	1.0	i	-12	-8	0.1
CCOC(=O)N1CCC(NC(=O)Cc2ccccc2)CC1	0.69	-0.9	-2.9	3	-5	-0.1	i	11	-1	4.7
COc1ccccc1CNC(=O)C1CCN(C(=O)N(C)C)CC1	0.72	0.2	.	-2	-1	-2.2	.	.	.	.
O=C(Nc1ccccc1)c1nnsc1S(=O)c1ccc(Cl)cc1 (centres undefined)	0.57	0.3	.	15	8	5.8	.	.	.	.
Cn1nc(C(F)(F)F)c2cc(NC(=O)OCc3ccc(F)cc3)sc21	0.67	-0.4	.	36	2	3.0	.	.	.	.
